PINK1 modulator = A Quantitative High throughput Screen to Identify Chemical Modulators of PINK1 Expression. PINK1 immunofluorescence, high-content cytometry, 24 h. actives 0.2% (n = 410,000). Potency, µM (top dose mostly 76.6 µM), without a hit: at the highest dose activation (PINK1 increase), usual class: activators; active = well fitted activation curve with a large enough effect; inconclusive = small, poorly fitted or top-dose-only effect; inactive = flat fitted curve, though single readings scatter; cell line not stated here;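 further: potency means the concentration at half of the fitted maximal effect; % of control where 0% means no effect; nearly all actives have a fitted effect of over 65% in size; a mitochondrial uncoupler was the plate control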
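Stable cell line treated 24 h with compounds at 5 concentrations (CCCP controls), then fixed and immunostained for PINK1 plus nuclear and cell stains; PINK1 immunofluorescence quantified by laser-scanning microplate cytometry.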
Sfp PPTase inh = qHTS Assay for Inhibitors of Bacillus subtilis Sfp phosphopantetheinyl transferase (PPTase) | 4'-phosphopantetheinyl transferase ffp (Bacillus subtilis), Q9F4F7 | Biochemical Sfp PPTase activity, qHTS | Potency, µM, for inactives: max response, negative = inhibition, actives largely listed as inhibitors | actives 3.5% (n = 310,000) | AID 1490, 2009; active means well fitted inhibition curve with a large enough effect; inconclusive means small, poorly fitted or top-dose-only effect, or another doubt; inactive means no such curve, though single readings can be large or run the other way;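 further: the enzyme is Sfp with the accession as filed and its product quenches rhodamine fluorescence; potency means the concentration at half of the fitted maximal effect; 0% = enzyme reaction without inhibitor and -100% = no enzyme wells; top concentration of the series not given in the record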
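Fluorescence-quenching assay with 15 nM Sfp, 5 uM rhodamine-CoA and 12.5 uM BHQ-2-labelled ybbR peptide in pH 7.6 Hepes/MgCl2 buffer. Enzyme was pre-incubated with compound for 15 min at room temperature. Rate was taken from the 30-min fluorescence change (525/598 nm).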
Six1-Eya2 inh = qHTS Assay for Inhibitors of the Six1/Eya2 Interaction | Homeobox protein SIX1 (Homo sapiens) + Protein phosphatase EYA2 (Homo sapiens), … | AlphaScreen GST-Six1/His-Eya2 binding, biochemical; hits give low values; control for the full effect not named in the record | activity change, % (test concentration not listed) | actives 0.56% (n = 360,000) | AID 651725, 2012; in the data active = activity change below about -65%; inconclusive = about -30% to -65%; inactive = above about -30%; further: on the % scale 0 is the no-effect control and ±100 the full control effect; compound concentration not given in the record
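Compounds are tested against tagged Six1 and Eya2 proteins bridged by glutathione donor and nickel acceptor beads; after a one-hour incubation at 37 °C without light, AlphaScreen emission is recorded.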
D2 agonist = Beta-Arrestin HTS for Positive Allosteric Modulators of the Human D2 Dopamine Receptor: Agonists | activation, % (no concentration beside the values) | DiscoveRx PathHunter D2 beta-arrestin, luminescence, 90 min; 100% = 57 uM dopamine signal | actives 0.084% (n = 360,000) | D(2) dopamine receptor (Homo sapiens), P14416; in the data active = activation above about 40%; inconclusive = about 15% to 40%; inactive = below about 15%; further: compound concentration not given in the record; the text of the record calls up to 30% inactive
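Agonist mode: compounds alone added to overnight-plated D2 PathHunter cells for 90 min at 37 C, with 57 uM final dopamine (EC100) defining full response. Beta-arrestin recruitment detected by chemiluminescent reagent, read after 1 h at ambient temperature.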
D2 PAM = Beta-Arrestin HTS for Positive Allosteric Modulators of the Human D2 Dopamine Receptor: Potentiators; D(2) dopamine receptor (Homo sapiens), P14416; DiscoveRx D2 beta-arrestin cells, luminescence, 90 min; 100% = 57 uM dopamine signal; potentiation, % (test concentration not listed); actives 0.23% (n = 360,000); AID 624464, 2012; active = potentiation of 50% or more; inconclusive = 30% to 50%; inactive = 30% or less;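 further: compound concentration not given in the record; tested on top of an EC20 dose of dopamine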
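D2 cells co-treated with compound plus 50 nM dopamine (EC20) for 90 min at 37 deg C to detect potentiation. Beta-arrestin recruitment was read as enzyme-fragment luminescence after 1 h at ambient temperature. Full response was set by 57 uM dopamine.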
TRPV1 potentiator = HTS Assay for Compounds that Act as Potentiators of the Vanilloid Receptor 1 | Transient receptor potential cation channel subfamily V member 1 (Homo sapiens), Q8NER1 | TRPV1-expressing cells, Fluo-8 calcium influx, capsaicin EC20 potentiation; host cell line not named in the record; control for the full effect not named in the record | potentiation, % at 8.33 µM | actives 0.02% (n = 320,000); active means potentiation above 80%; inconclusive means 30% to 80%; inactive means below 30%; further: 0% is about no effect
Target sequence (Q8NER1 whole entry, looked up): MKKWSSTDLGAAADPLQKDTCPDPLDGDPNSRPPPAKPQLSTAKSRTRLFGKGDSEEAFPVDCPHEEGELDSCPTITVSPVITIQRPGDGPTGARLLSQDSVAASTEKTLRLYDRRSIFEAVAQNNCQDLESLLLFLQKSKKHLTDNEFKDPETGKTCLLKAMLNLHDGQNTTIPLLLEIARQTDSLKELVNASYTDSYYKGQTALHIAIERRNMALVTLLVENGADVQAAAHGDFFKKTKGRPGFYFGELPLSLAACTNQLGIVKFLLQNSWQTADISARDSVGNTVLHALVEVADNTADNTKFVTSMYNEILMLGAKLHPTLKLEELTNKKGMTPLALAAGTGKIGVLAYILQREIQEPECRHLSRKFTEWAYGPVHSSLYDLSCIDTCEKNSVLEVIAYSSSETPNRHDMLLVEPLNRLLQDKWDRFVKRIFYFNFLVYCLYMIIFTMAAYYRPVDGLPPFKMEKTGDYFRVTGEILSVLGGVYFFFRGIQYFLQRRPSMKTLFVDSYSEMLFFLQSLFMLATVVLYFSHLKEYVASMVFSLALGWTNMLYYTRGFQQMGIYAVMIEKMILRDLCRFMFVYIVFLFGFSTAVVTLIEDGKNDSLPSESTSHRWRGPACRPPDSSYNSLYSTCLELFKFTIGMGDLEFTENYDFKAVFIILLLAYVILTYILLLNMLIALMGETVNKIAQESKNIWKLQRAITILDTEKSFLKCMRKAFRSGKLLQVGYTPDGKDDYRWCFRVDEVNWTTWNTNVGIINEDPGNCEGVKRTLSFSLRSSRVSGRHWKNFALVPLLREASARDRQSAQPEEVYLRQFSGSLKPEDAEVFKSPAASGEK
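Fluo-8 calcium influx in TRPV1-expressing cells, kinetic read (ex 480/em 520 nm). Compound added and read 3 min for agonist activity, followed by capsaicin at EC20 final and 2 min further read for enhancement.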
CtBP-E1A inh = qHTS Assay for Inhibitors of the CtBP/E1A Interaction. CtBP / adenovirus E1A interaction (AlphaScreen). actives 0.49% (n = 340,000). activity change, % (no concentration beside the values). AlphaScreen GST-E1A/His-CtBP binding, 1536-well; hits give low values; control for the full effect not named in the record; in the data active means activity change below about -65%; inconclusive means about -30% to -65%; inactive means above about -30%; further: on the % scale 0 is the no-effect control and ±100 the full control effect; compound concentration not given in the record
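Homogeneous bead-based format: GST-tagged E1A captured on glutathione donor beads, His-tagged CtBP on nickel acceptor beads; compounds precede bead addition by 2 h at 37 °C.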
Starred values were filed as active, the others as inactive; ? = inconclusive; / = no result given; [ ] = dose if it differs, or a comment.

structure,Six1-Eya2 inh,D2 agonist,PINK1 modulator,TRPV1 potentiator,CtBP-E1A inh,Sfp PPTase inh,D2 PAM
O=C(COC(=O)c1cccnc1Cl)NC1CCCc2ccccc21 (stereo not drawn),-2,6.3,2.2%,/,/,/,0
O=C(O)c1ccc(/C=N/NC(=S)NCCN2CCOCC2)cc1,-10,-1.9,0.7%,13,13,50µM*,-2
c1csc(Cc2nn3c(-c4ccncc4)nnc3s2)c1,-13,1.1,-1.5%,4,-9,?,-1
C[C@H](NC(=O)c1nc[nH]c1C(=O)N1CCN(c2ccccc2)CC1)C(=O)OC(C)(C)C,-5,-3.3,-0.1%,?,-4,-1%,-6
Cc1ccc(CNC(=O)c2cc(S(=O)(=O)N3CCCCC3)ccc2N2CCOCC2)cc1,1,2.3,-0.2%,1,-2,/,-6
COc1cc(C(=O)COC(=O)c2ccc3c(c2)OCCO3)cc(OC)c1OC,-30,-0.5,10%,/,-9,/,-10
COc1ccc(Cl)c(Cn2c(NCC(C)O)nc3c2c(=O)n(C)c(=O)n3C)c1 (stereo not drawn),6,-2.2,0.2%,24,5,14%,-12
CNC(=O)C1CCN(S(=O)(=O)c2c(C)noc2/C=C/c2ccc(C)cc2)CC1,3,-3.4,3.1%,-51,-5,12%,-3
COc1nc(N)c(S(=O)(=O)c2ccccc2)cc1C#N,-11,6.4,24%[38.3 µM],9,-1,4%,3
Cc1cccc(N2CCN(C(=O)C(C)C)CC2)c1C,-2,-4.8,-0.6%,-13,2,13%,-5
O=C(COC(=O)[C@H](Cc1ccccc1)NC(=O)c1cccs1)Nc1c(Cl)cccc1Cl,-9,-1.8,12%,3,-3,12%,-3
COc1cc([N+](=O)[O-])cc(/C=N/NC(=O)Cn2cncn2)c1O,-90*,-11,-2.1%,7,/,16%,-21
COc1ccc(N(C)C(=O)c2cc3c(s2)-c2ccccc2OC3)c(OC)c1,-8,-2.2,1.9%,-20,-25,-6%,2
COC(=O)C1=C(C)N(C)C(=S)NC1c1ccccc1 (stereo not drawn),9,-2.2,-0.2%,-14,10,-14%,-10
COC(=O)c1ccc(CSc2ccccc2NC(=S)Nc2cccc(C(F)(F)F)c2)o1,0,-5.6,?,/,5,/,-8
COc1ccc(/C=N/NC(=O)Cc2cc(OC)c(OC)cc2[N+](=O)[O-])cc1,1,-0.2,-0.8%,-15,-4,-12%,-7
COCCNC(=O)CCCC(=O)NCCOC,4,-2.2,0.0%,0,2,8%,-5
COc1cc(NC(=O)c2ccccc2)c(OC)cc1Cl,5,-1.0,-1.3%,14,6,1%,-15
Cc1ccc(-c2nn(-c3ccccc3)cc2/C=N/O)cc1,2,0.6,4.7%,15,-4,3%,-1
C=CCN(CC(=O)Nc1cccnc1)S(=O)(=O)c1ccc(Cl)cc1,-20,-4.2,-2.0%,/,0,/,-15

4 of these compounds, reformatted:
SMILES: COc1nc(N)c(S(=O)(=O)c2ccccc2)cc1C#N
- Six1-Eya2 inh: -11
- D2 agonist: 6.4
- PINK1 modulator: 24%[38.3 µM]
- TRPV1 potentiator: 9
- CtBP-E1A inh: -1
- Sfp PPTase inh: 4%
- D2 PAM: 3

SMILES: Cc1cccc(N2CCN(C(=O)C(C)C)CC2)c1C
- Six1-Eya2 inh: -2
- D2 agonist: -4.8
- PINK1 modulator: -0.6%
- TRPV1 potentiator: -13
- CtBP-E1A inh: 2
- Sfp PPTase inh: 13%
- D2 PAM: -5

SMILES: O=C(COC(=O)[C@H](Cc1ccccc1)NC(=O)c1cccs1)Nc1c(Cl)cccc1Cl
- Six1-Eya2 inh: -9
- D2 agonist: -1.8
- PINK1 modulator: 12%
- TRPV1 potentiator: 3
- CtBP-E1A inh: -3
- Sfp PPTase inh: 12%
- D2 PAM: -3

SMILES: COc1cc([N+](=O)[O-])cc(/C=N/NC(=O)Cn2cncn2)c1O
- Six1-Eya2 inh: -90*
- D2 agonist: -11
- PINK1 modulator: -2.1%
- TRPV1 potentiator: 7
- CtBP-E1A inh: /
- Sfp PPTase inh: 16%
- D2 PAM: -21

The list goes on:
structure,Six1-Eya2 inh,D2 agonist,PINK1 modulator,TRPV1 potentiator,CtBP-E1A inh,Sfp PPTase inh,D2 PAM
COc1cc(-n2c(=O)c3ccccc3n(Cc3cccnc3)c2=O)cc(OC)c1OC,26,-5.0,?,/,22,/,-18
Cn1nc(C(C)(C)C)cc1NC(=O)Nc1cc(Cl)cc(Cl)c1,3,-0.6,?,-13,5,6%,-12
CC(=O)c1cccc(-c2ccnc3c2CC(C(=O)Nc2cccc(C(F)(F)F)c2)O3)c1 (stereo not drawn),1,9.9,2.5%,/,-8,/,-10
Cc1ccccc1OCC(=O)NN1C(=O)C2C3C=CC(O3)C2C1=O (stereo not drawn),-6,-2.5,-0.1%,4,-8,50µM*,-7
CC1CC(CC(C)C(=O)Nc2nncs2)C(=O)O1 (stereo not drawn),-1,1.5,-2.3%[38.3 µM],8,-11,17%,-3
COc1ccc(C)cc1S(=O)(=O)N1CCCC(N2CCOCC2)C1 (stereo not drawn),0,-2.2,0.6%,0,13,6%,-3
COc1ccc(C(C(=O)NC2CCCCC2)N(Cc2cccnc2)C(=O)c2snc(C(N)=O)c2N)cc1 (stereo not drawn),-2,-3.4,2.9%,-12,12,15%,-3
COc1cccc(NC(=O)C(C)(C)C)c1,0,-3.8,1.6%,4,-1,/,-13
CCCc1nnc(NC(=O)Cn2c(=O)sc3ccccc32)s1,-2,-1.0,-2.8%,-4,-1,-2%,-12
O=C(N/N=C/C=C/c1ccc2c(c1)OCO2)c1ccc([N+](=O)[O-])cc1,-5,1.8,-2.8%[38.3 µM],-6,-7,9%,-11
CCOCCCNC(=S)N1C2CCC1CC(NC(=O)NC13CC4CC(CC(C4)C1)C3)C2 (stereo not drawn),4,-0.8,/,7,7,15%,4
COCCN(CCOC)S(=O)(=O)c1ccc(C(=O)Nc2nnc(C)o2)cc1,-25,-2.8,0.7%,-11,-17,89µM*,0
O=C(N/N=C/C=C/c1ccccc1)C(O)c1ccccc1 (stereo not drawn),0,-1.0,-0.3%[38.3 µM],/,11,/,-3
Cc1cccc(C)c1-n1nnnc1C1c2ccccc2C(=O)N1C1CC1 (stereo not drawn),12,/,-0.1%,/,5,/,/
CCOC(=O)C1CCN(C(=O)COC(=O)CSc2ccccc2C)CC1,6,4.6,0.7%,/,5,/,1
COC(=O)C(NS(=O)(=O)c1ccc(C)cc1)c1ccccc1 (stereo not drawn),-8,-4.0,-1.4%,-9,0,5%,-2
CCOC(=O)C(=CN=C(N)Nc1nc2ccccc2o1)C(=O)OCC,-12,-2.5,4.6%,-12,-10,-9%,0
CCn1c(NN)nc2sc3c(c2c1=O)CCC3,-23,-1.4,-0.3%,29,-9,56µM*,-2
CCOCCn1c(CN2CCOCC2)nc2c1c(=O)[nH]c(=O)n2C,1,-4.5,2.6%,-17,6,34%[activator],-3
Cc1ccc(-c2csc(=Nc3cccnc3)n2CCCn2ccnc2)cc1C,-20,2.7,-2.5%,8,?,-5%,-22

Remaining list, next part:
structure,Six1-Eya2 inh,D2 agonist,PINK1 modulator,TRPV1 potentiator,CtBP-E1A inh,Sfp PPTase inh,D2 PAM
CC(Oc1ccc2c(-c3ccccc3)cc(=O)oc2c1)C(=O)N[C@H](Cc1c[nH]c2ccccc12)C(=O)O (stereo partly drawn),-27,-3.1,0.6%,23,-20,1%,-11
O=C(Nc1cccc2nsnc12)C1CC(=O)N(c2ccccc2)C1 (stereo not drawn),0,-3.4,-0.1%,9,-1,-25%,15
O=C(N/N=C/c1ccc2cccc(OCc3ccccc3)c2n1)c1ccc(Cl)cc1,-10,-1.7,3.7%,?,-6,?,-10
COCCNC(=O)c1ccccc1NC(=O)c1ccccc1SC,4,7.3,0.8%,-8,0,56µM*,-7
Cc1ccc(Oc2nc3ccccc3n3cccc23)cc1,9,-3.6,?,14,14,5%,-12
Cc1cccc(C(=O)NCC(=O)OCC(=O)N(C)CC(=O)Nc2ccccc2Cl)c1,6,-5.2,1.6%,-1,-4,/,3
Cc1[nH]c(=O)c(C#N)c2c1CSC(C)(C)C2,0,-1.7,23%[38.3 µM],-4,-5,2%,-3
CCCS(=O)(=O)N1CCN(c2ccccc2F)CC1,0,-2.4,-0.2%,-4,-10,-1%,5
CC(C)=CCN1CCN(Cc2ccc(C#CC(C)(C)O)cc2)CC1CCO (stereo not drawn),-8,-6.1,4.1%,1,5,13%,-7
O=C(CSc1nnnn1-c1ccccc1F)NNC(=O)c1ccco1,12,-4.5,3.8%,16,-6,10%,-3
O=C(NN(Cc1ccccc1)Cc1ccccc1)c1ccccc1,4,-5.9,8.2%,/,5,/,-9
CC(C)(C)C(=O)Cn1ncc(Br)c(Br)c1=O,0,-1.5,-0.6%,21,7,-5%,-24
O=C(Nc1ccc(Oc2ncnc3cc(Cl)ccc23)nc1)c1cccs1,9,-6.3,3.0%,1,/,1%,-20
O=C1COc2ccc(S(=O)(=O)CCC(=O)N3CCN(c4ccccc4)CC3)cc2N1,0,-2.6,0.1%,4,6,9%,-5
CCCNc1nc(-c2cc(C(=O)Nc3ccccc3)on2)cc(C(C)C)n1,2,-2.8,0.6%,/,6,/,0
Nc1nnn(CC(=O)N/N=C/c2ccccc2)n1,6,-3.2,2.9%,-3,/,3%,-9
Cc1ccc(/C=C/c2nnc(-c3ccccc3)o2)cc1,2,-1.7,2.4%[38.3 µM],-20,8,-1%,-2
Cc1nc(-c2ccc(Cl)cc2)sc1C1(C)CC(c2ccc(Cl)cc2)=NO1 (stereo not drawn),0,-3.9,3.1%,/,1,/,-15

Bioassay records as filed in PubChem BioAssay.
